Assay outcomes: PubChem BioAssay, National Center for Advancing Translational Sciences (NCATS)
gsp antagonist: gsp mutant antagonism; gsp-mutant cells, cAMP HTRF, 30 min; control for the full effect not named in the record; Potency, µM (top dose mostly 76.9 µM), inactives show top-dose activity change, negative = inhibition, actives largely listed as inhibitors; hit rate 0.4% among 340,000; active = falling curve of any shape with a large fitted effect; inconclusive = falling curve, mostly with a smaller effect; inactive = flat or rising curve; cell line not stated here;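 further: intracellular cAMP measured with PDE inhibitor Ro 20-1724 present during compound exposure; potency means the concentration at half of the fitted maximal effect; on the % scale 0 is the no-effect control and ±100 the full control effect; nearly all actives have a fitted effect of over 65% in size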
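HTRF cAMP measurement after 30 min RT detection following 30 min, 37C compound treatment alongside […] (added as 300 uM solution) in G418-selected cells seeded at 2000/well and grown 16–24 h.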
ClpP mod: qHTS Assay for Activators of ClpP. ATP-dependent Clp protease proteolytic subunit (Bacillus subtilis (strain 168)), P80244. purified B. subtilis ClpP, FRET peptide cleavage, 20 min. Potency, µM (titrated, usually from 57.5 µM), for inactives: top-dose activity change, negative = active. hit rate 1.9% among 340,000. AID 651965, 2013; active = well fitted falling curve with a large enough effect; inconclusive = small, poorly fitted or top-dose-only effect; inactive = no such curve, though single readings can be large or run the other way; further: potency means the concentration at half of the fitted maximal effect; the source files actives as falling curves though it sought activators and does not explain the sign; nearly all actives have a fitted effect of over 65% in size; many hits overshoot -100%
Target sequence (P80244 whole entry, looked up): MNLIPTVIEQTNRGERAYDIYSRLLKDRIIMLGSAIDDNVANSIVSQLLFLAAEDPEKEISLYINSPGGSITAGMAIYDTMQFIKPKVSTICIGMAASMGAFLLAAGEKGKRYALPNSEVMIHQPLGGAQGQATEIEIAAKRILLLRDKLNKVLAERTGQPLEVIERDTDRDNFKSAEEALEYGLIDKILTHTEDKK
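ClpP 10 microg/mL final, pH 8 Tris/KCl buffer with BSA, glycerol, Tween-20; compound pinned in; FRET-FV substrate; RT 20 min; Ex320/Em430; ΔFRET vs ADEP 5.8 microM, DMSO, no enzyme.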
Sfp PPTase inh: blocks B. subtilis Sfp PPTase activity; Potency, µM, without a hit: max response, negative = inhibition, most hits filed as inhibitors; Biochemical Sfp PPTase activity, qHTS; hit rate 3.5% among 310,000; active means well fitted inhibition curve with a large enough effect; inconclusive means small, poorly fitted or top-dose-only effect, or another doubt; inactive means no such curve, though single readings can be large or run the other way;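 further: the enzyme is Sfp with the accession as filed and its product quenches rhodamine fluorescence; potency means the concentration at half of the fitted maximal effect; 0% = enzyme reaction without inhibitor and -100% = no enzyme wells; top concentration of the series not given in the record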
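Buffer: 50 mM Hepes-Na pH 7.6, 10 mM MgCl2, 0.01% Nonidet P-40, 0.01% BSA. Enzyme 15 nM, pre-exposed to compound 15 min; substrates then added and fluorescence change tracked over 30 min.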
Menin-MLL FL inh: menin-MLL binding inhibition, fluorescein peptide | Fluorescence polarization, fluorescein-MLL peptide displacement from menin | 290,000 tested, under 10 active | FP activity change, % at 61.4 µM | AID 1766; inconclusive = falling polarisation curve, or a change in total fluorescence; inactive = total fluorescence flat and polarisation flat or rising; no compound was filed as active; the % refers to the polarisation; negative = inhibition;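 further: % of control where 0% means no effect; inhibitors lower the polarisation; unlabelled MLL peptide was the positive control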
gsp ag: activates gsp, the McCune-Albright syndrome mutation. gsp mutant cells, cAMP HTRF, 30 min; control for the full effect not named in the record. Potency, µM (top dose mostly 76.9 µM), for inactives: top-dose activation (cAMP increase), hits mostly activators. hit rate 0.13% among 340,000; active = well fitted activation curve with a large enough effect; inconclusive = small, poorly fitted or top-dose-only effect, or another doubt; inactive = no such curve, though single readings can be large or run the other way; cell line not stated here;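 further: phosphodiesterase inhibitor Ro 20-1724 added with compounds to block cAMP breakdown; potency means the concentration at half of the fitted maximal effect; nearly all actives have a fitted effect of over 60% in size; about a fifth of the inactives were tested at one dose only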
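Cells stably selected in G418 were plated at 2000/well, grown 16-24 hr, then given compounds in DMSO with the PDE inhibitor […] (300 uM solution added) for 30 min at 37C; cAMP was read by HTRF.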
TRPV1 potentiator: human TRPV1 potentiation; Q8NER1; potentiation, % at 8.33 µM; AID 540277; hit rate 0.02% among 320,000; TRPV1-expressing cells, Fluo-8 calcium influx, capsaicin EC20 potentiation; host cell line not named in the record; control for the full effect not named in the record; active means potentiation above 80%; inconclusive means 30% to 80%; inactive means below 30%; further: 0% is about no effect
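Fluo-8 calcium influx in TRPV1-expressing cells, kinetic read (ex 480/em 520 nm). Compound added and read 3 min for agonist activity, followed by capsaicin at EC20 final and 2 min further read for enhancement.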
D2 PAM: positive allosteric modulators of human D2 dopamine receptor; P14416; DiscoveRx D2 beta-arrestin cells, luminescence, 90 min; 100% = 57 uM dopamine signal; potentiation, % (concentration not given with the values); hit rate 0.23% among 360,000; active = potentiation of 50% or more; inconclusive = 30% to 50%; inactive = 30% or less;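 further: compound concentration not given in the record; tested on top of an EC20 dose of dopamine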
Target sequence (P14416 whole entry, looked up): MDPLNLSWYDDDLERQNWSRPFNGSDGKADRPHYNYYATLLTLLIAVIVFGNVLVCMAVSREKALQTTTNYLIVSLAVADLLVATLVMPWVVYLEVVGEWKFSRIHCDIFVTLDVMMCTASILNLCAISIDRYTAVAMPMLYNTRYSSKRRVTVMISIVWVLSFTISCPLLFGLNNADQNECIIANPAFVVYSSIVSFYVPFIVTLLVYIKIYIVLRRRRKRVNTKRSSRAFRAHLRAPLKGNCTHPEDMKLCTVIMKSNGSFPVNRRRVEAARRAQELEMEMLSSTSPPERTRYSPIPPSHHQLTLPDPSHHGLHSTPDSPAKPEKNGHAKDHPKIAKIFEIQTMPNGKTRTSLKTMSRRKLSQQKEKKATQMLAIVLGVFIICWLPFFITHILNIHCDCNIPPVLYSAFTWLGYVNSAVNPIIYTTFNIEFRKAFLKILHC
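PathHunter beta-arrestin assay in DiscoveRx D2 cells. Compounds were added with an EC20 of dopamine (50 nM final) for 90 min at 37 deg C. Luminescence was read 1 h after detection reagent, with 57 uM dopamine as the EC100 control.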
* = called active by the depositor; ? = inconclusive; . = not tested or not shown; & = joins results of further samples; [ ] = remark or other dose. Compounds were not picked by outcome; overall some 5.1% were active at least once.

SMILES | gsp antagonist | ClpP mod | Sfp PPTase inh | Menin-MLL FL inh | gsp ag | TRPV1 potentiator | D2 PAM
O=C(CCN1CCc2ccccc2CC1)c1ccc2c(c1)OCCO2 | 16% | 6.5% | 40µM* | 2.3 | -16% | -18 | -14
CCN(CC(=O)NC1CCCC1)S(=O)(=O)c1ccc(C)cc1 | -2% | -0.5% | 4% | 2.8 | -2% | -15 | 6
Cc1cc(C)c(-n2c(C)cc(/C=C3/NC(=O)NC3=O)c2C)c(C)c1 | 2% | -17% | -19% | 8.8 | ? | 14 | 0
COc1ccc(C(=O)Nc2ccc(S(=O)(=O)Nc3cc(C)nc(C)n3)cc2)c(OC)c1 | 12% | 1.0% | 5% | -1.5 | ? | -5 | -12
Cc1cc(/C=C(\C#N)C(=O)O)c(C)n1CC(C)C | -17% | -1.5% | 30% | -0.6 | 6% | -4 | -3
COc1ccc(/C=N/N=C2/NC(=O)C(c3ccccc3)(c3ccccc3)S2)cc1 | 9% | 0.1% | 15% | 1.1 | -18% | 3 | -3
CC(C)Oc1cc2oc(=O)c3c(c2cc1Cl)CCC3 | 9% | ? | 18% | -2.6 | 15% | -12 | -2
Cc1ccc(N2C(=O)C(Cc3ccccc3)NC2=S)cc1 (stereo unspecified) | -1% | -2.0% | 4% | 4.4 | ? | 4 | -13
O=C(Nc1cccc(F)c1)c1c(F)c(F)c(F)c(F)c1F | 0% | -1.1% | 16% | 1.5 | -80%[inhibitor] | -13 | -15
Cc1cc([N+](=O)[O-])nn1CCCC(=O)O | 7% | -0.8% | -5% | -3.8 | -13% | -7 | -2
C/C(=N\NC(=O)COc1ccc(C(C)(C)C)cc1)c1ccc(OC(F)F)cc1 | -3% | -12% | 22% | -1.5 | -20%[15.4 µM] | 9 | 3
O=C1CCCC2=C1C(c1ccccc1)CC(=O)N2c1ccccc1 (stereo unspecified) | -5% | 0.4% | 14% | -1.9 | -13% | -1 | -18
CC(=O)CC(=O)Nc1ncc(C(F)(F)F)cc1Cl | 9% | . | -15% | 1.6 | 6% | 5 | -5
Cc1ccc(Cn2c(=O)n(Cc3ccco3)c(=O)c3ccccc32)cc1 | 2% | 0.1% | 7% | -1.0 | 19% | -3 | -2
O=C(Cn1ncc2c3ccccc3n(Cc3ccccc3)c2c1=O)NCc1ccccn1 | 5% | 3.5%&-21% | -9% | 0.4 | ? | -9 | -9
NNc1nc(Nc2ccccc2)nc(N2CCCCC2)n1 | 0% | -1.8% | 9% | -0.9 | -59%[inhibitor] | 7 | -26
C=CCn1c(SCC(=O)N2CCc3ccccc3C2)nc2sc(C)cc2c1=O | ? | -1.5% | -19% | 2.4 | -77%[inhibitor] | -14 | -12
COc1ccccc1NC(=O)CNC(=O)CC12CC3CC(CC(C3)C1)C2 | -2% | -11% | . | . | -41%[15.4 µM] | . | -25
O=C(NCCc1ccccc1)C1CC(=O)N(C2CCCCCC2)C1 (stereo unspecified) | 7% | 0.8% | 6% | -2.9 | -10% | 1 | 5
Cc1nc2nc(-c3cccnc3)nn2c(C)c1Cl | 12% | -4.2% | 11% | 3.5 | ? | -7 | -1
Cc1[nH][nH]c(=O)c1C(c1c(C)[nH][nH]c1=O)c1cn(Cc2ccccc2Cl)c2ccccc12 | 9% | 0.7% | -11% | . | -47%[inhibitor] | -2 | -11
Cc1csc2ncnc(NCCc3ccccn3)c12 | -8% | 0.2% | 16% | -0.1 | ? | 11 | 2
O=C(CN1C(=O)CNC1=O)Nc1cccc(C(F)(F)F)c1 | 5% | 1.0% | 10% | 0.2 | -26% | 0 | -10
CCOC(=O)C1(CC2CCCCO2)CCN(C(=O)NCc2ccccc2)CC1 (stereo unspecified) | -5% | . | 6% | -2.0 | -14%[15.4 µM] | -17 | -3
O=C(c1cccc([N+](=O)[O-])c1)N1CCCC(C(=O)N2CCCCC2)C1 (stereo unspecified) | 3% | -1.2% | 8% | -4.2 | 9% | 7 | -14
Cc1ccc(C)c2[nH]c(=O)c(CN(Cc3ccc4c(c3)OCO4)Cc3nnnn3Cc3ccco3)cc12 | -15% | -21% | 50µM* | 19 | 17% | 8 | 0
COc1ccc(OCC(O)CNC(=O)Nc2cc(F)ccc2C)cc1 (stereo unspecified) | -10% | 0.7% | 15% | -0.8 | 14% | . | -32
COc1ccc(-n2c(SCc3ccc([N+](=O)[O-])cc3)nnc2-c2ccccc2)cc1 | ? | -14% | -3% | -1.7 | 0% | -1 | -7
COC(=O)c1ccc(N2C(=O)Nc3ccccc3N2O)cc1 | 3% | 0.1% | 18% | -1.8 | -46%[inhibitor] | 5 | 0
O=C(OCC(=O)N1CCCc2ccccc21)c1c(F)cccc1F | 1% | -1.6% | . | . | -6% | 5 | 6
CCc1nc(N)c(C#N)c(-c2ccc(OC)c(OC)c2)c1C | 21% | 13% | 9% | 2.2 | 7% | 0 | 8
Cc1cc(C)nc(/N=C(\N)N2CCCCCC2)n1 | 17% | 1.9% | 0% | -3.2 | -39% | -15 | -8
CCC(=NC1CC(C)(C)NC(C)(C)C1)C1=C(O)CC(C)(C)CC1=O | -6% | -1.3% | 16% | -0.1 | 1% | -4 | -23
O=C(CSc1nc2ccccc2[nH]1)NCc1ccco1 | -5% | -1.0% | 4% | -2.1 | 0% | 21 | -1
COc1cc(NC(=O)Cc2ccccc2)ccc1NC(=O)c1ccccc1 | -23% | . | 8% | -0.1 | -61%[inhibitor] | -21 | -3
Cc1ccc(-n2c3c(cc(C(=O)Nc4cccc(C)n4)c2=O)C(=O)CCC3)cc1 | . | . | -4% | 3.4 | . | 1 | .
CC(C)Cc1ccc(S(=O)(=O)N2CCN(C(=O)c3ccco3)CC2)cc1 | -2% | 4.9% | -3% | -1.3 | -51%[inhibitor] | -7 | -7
Cc1ccc(S(=O)(=O)N2CCN(C(=O)COC(=O)/C=C/c3ccc(OC(F)F)cc3)CC2)cc1 | -5% | -2.6% | . | . | 12% | . | -2
CCC1=NN(C(=O)Cc2ccc([N+](=O)[O-])cc2)C(O)(C(C)(C)C)C1 (stereo unspecified) | 4% | -5.2% | -6% | -0.4 | -1% | -16 | -10
Cc1nc(NC(=O)/C=C/c2ccccc2)sc1C(=O)Nc1ccc(Cl)cc1 | 2% | 104% | ? | -0.6 | -33%[inhibitor] | . | 13

Arranged by value in gsp ag (highest first): 3 of the compounds above.
mol	Sfp PPTase inh	Menin-MLL FL inh	gsp ag	D2 PAM
COc1ccc(OCC(O)CNC(=O)Nc2cc(F)ccc2C)cc1 (stereo unspecified)	15%	-0.8	14%	-32
Cc1cc(/C=C(\C#N)C(=O)O)c(C)n1CC(C)C	30%	-0.6	6%	-3
CCC1=NN(C(=O)Cc2ccc([N+](=O)[O-])cc2)C(O)(C(C)(C)C)C1 (stereo unspecified)	-6%	-0.4	-1%	-10

Next part
SMILES | gsp antagonist | ClpP mod | Sfp PPTase inh | Menin-MLL FL inh | gsp ag | TRPV1 potentiator | D2 PAM
Cc1cc(Cl)ccc1OCCCC(=O)NCC1CCCO1 (stereo unspecified) | -1% | -2.3% | -1% | 3.6 | 8% | -14 | -17
CC(=O)c1c(C(C)=O)c(C)n(-c2ccc(N)c(C)c2)c1C | -13% | 1.7% | 3% | -1.3 | 26% | 5 | -21
CCc1ccc(/C=C2\Oc3c(ccc(O)c3CN3CCN(C)CC3)C2=O)cc1 | 1% | -3.8% | -17% | ? | ? | -3 | -16
COc1ccc(S(=O)(=O)N2CCCCCC2)cc1C(=O)Nc1cccc(C)n1 | -5% | -0.6% | -10% | -0.8 | 3% | -5 | 0
CCOC(=O)CCc1c(C)c2ccc(OC3CCCCC3=O)cc2oc1=O (stereo unspecified) | -8% | ? | -6% | 11 | -2%[15.4 µM] | 21 | -1
COC(=O)C1CCN(S(=O)(=O)CCNC(=O)c2ccc(F)cc2)CC1 | 15% | . | . | . | -25%[15.4 µM] | -8 | -6
CC1(C)CC(NC(=O)c2cccc3ccccc23)CC(C)(C)N1 | -2% | -3.0% | 2% | -3.1 | -43%[inhibitor] | 7 | 10
CC(=O)O[C@H]1CC[C@@]2(C)C(=CC[C@H]3[C@@H]4CC[C@H](C(C)=O)[C@@]4(C)CC[C@@H]32)C1 | -4% | 0.5% | . | . | . | . | -4
OCCN1CCN(CC(O)COc2ccc(C34CC5CC(CC(C5)C3)C4)cc2)CC1 (stereo unspecified) | 10% | 0.5% | ? | 4.1 | 0%[15.4 µM] | -6 | -18
C[C@H]1NS(=O)(=O)c2cc(Cl)ccc2O[C@@H]1c1ccccc1 | . | 2.6% | . | . | -56%[inhibitor] | . | 3
CCCC(NC(=S)NCC1CCCO1)C12CC3CC(CC(C3)C1)C2 (stereo unspecified) | -14% | -2.1% | 2% | -1.2 | -21% | 1 | -51
CCCCCNS(=O)(=O)c1cc2c3c(c1)CCC(=O)N3CCC2 | 9% | -1.6% | -1% | 1.2 | 3% | -24 | -1
O=C(/C(=C/O)N=Nc1ccc(Cl)cc1)c1ccncc1 | -20% | 11% | -1% | 2.5 | ? | 22 | -31
c1cc(CN2CCCCC2)cc(OCCCNc2nc3ccccc3s2)c1 | -1% | 0.8% | 3%&16%&5% | -3.1&3.4 | . | . | -32
CCOc1ccc(CCNC(=O)c2cc(C)on2)cc1OCC | 0% | -0.7% | -18% | . | ? | 7 | 3
CC(O)CNc1nc2c(c(=O)n(Cc3cccc(Cl)c3)c(=O)n2C)n1C (stereo unspecified) | -6% | 0.7% | 8% | -6.1 | -8% | 5 | ?
Cc1ccc(C2(C)NC(=O)N(CC(=O)NC3CCCCC3)C2=O)cc1 (stereo unspecified) | 4% | . | . | . | 11%[15.4 µM] | 12 | -4
Cc1ccc(C(=O)NC2CCS(=O)(=O)C2)cc1S(=O)(=O)N1CCCCC1 (stereo unspecified) | 7% | -1.3% | 16% | 2.8 | 13% | 2 | -9
CCCNc1c(NS(=O)(=O)c2ccc(OC)c(OC)c2)c(=O)oc2ccccc12 | -7% | -1.4% | -1% | . | ? | -15 | 3
O=C1CC(N2CCN(c3ccccc3)CC2)C(=O)N1c1cccc(Cl)c1 (stereo unspecified) | 7% | -0.8% | 8% | -0.5 | 3% | 27 | 1
